TRPML1 agonist – qHTS for Agonists of the Human Mucolipin Transient Receptor Potential 1 (TRPML1) | TRPML1-expressing cells, Ca2+ dye fluorescence, FDSS; host cell line not named in the record; reference of the full effect not given here | activation, % (no concentration beside the values) | 410,000 tested, 0.12% active | AID 624414, 2012; in the data active = activation above about 50%; inconclusive = about 30% to 50%; inactive = below about 30%; note: 0% is about no effect; the text of the record puts the active cut at 80%
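Agonist activity was taken from a 110 s kinetic Ca2+ dye read on the FDSS after pinning compounds onto TRPML1-DL cells. The cells were seeded at 1,500/well with Tet inducer, incubated about 16 h, then dye-loaded at room temperature.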
Menin-MLL FL inh – qHTS Assay for Inhibitors Targeting the Menin-MLL Interaction in MLL Related Leukemias: Competition With Fluorescein Labeled MLL-derived Peptide; Fluorescence polarization, fluorescein-MLL peptide displacement from menin; FP activity change, % at 61.4 µM; 290,000 tested, under 10 active; inconclusive = falling polarisation curve, or a change in total fluorescence; inactive = total fluorescence flat and polarisation flat or rising; no compound was filed as active; the % refers to the polarisation; negative = inhibition;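 note: % of control where 0% means no effect; inhibitors lower the polarisation; unlabelled MLL peptide was the positive control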
PINK1 expr mod – A Quantitative High throughput Screen to Identify Chemical Modulators of PINK1 Expression; PINK1 immunofluorescence, high-content cytometry, 24 h; Potency, µM (series often up to 76.6 µM), for the others: at the top dose activation (PINK1 increase), most hits filed as activators; 410,000 tested, 0.2% active; active = well fitted activation curve with a large enough effect; inconclusive = small, poorly fitted or top-dose-only effect; inactive = flat fitted curve, though single readings scatter; cell line not stated here;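 note: potency is the fitted concentration of half-maximal effect; % of control where 0% means no effect; nearly all actives have a fitted effect of over 65% in size; a mitochondrial uncoupler was the plate control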
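Cells are seeded, rested 12 hours, then given compound at five concentrations or DMSO for 24 hours. After fixation, blocking and antibody staining, PINK1 amount and mitochondrial localization are scored; CCCP serves as control.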
Sfp PPTase inh – qHTS Assay for Inhibitors of Bacillus subtilis Sfp phosphopantetheinyl transferase (PPTase); 4'-phosphopantetheinyl transferase ffp (Bacillus subtilis), Q9F4F7; Biochemical Sfp PPTase activity, qHTS; Potency, µM, for inactives: max response, negative = inhibition, most hits filed as inhibitors; 310,000 tested, 3.5% active; active = well fitted inhibition curve with a large enough effect; inconclusive = small, poorly fitted or top-dose-only effect, or another doubt; inactive = no such curve, though single readings can be large or run the other way;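 note: the enzyme is Sfp with the accession as filed and its product quenches rhodamine fluorescence; potency is the fitted concentration of half-maximal effect; 0% = enzyme reaction without inhibitor and -100% = no enzyme wells; top concentration of the series not given in the record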
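After 15 min at room temperature with compound, 15 nM Sfp received 5 uM rhodamine-CoA plus 12.5 uM BHQ-2-ybbR (50 mM Hepes pH 7.6, 10 mM MgCl2). Rate came from the fluorescence difference over 30 min, ex 525/em 598 nm.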
ClpP mod – qHTS Assay for Activators of ClpP. AID 651965, 2013. Potency, µM (series often up to 57.5 µM), for the others: at the top dose activity change, negative = active. ATP-dependent Clp protease proteolytic subunit (Bacillus subtilis (strain 168)), P80244. purified B. subtilis ClpP, FRET peptide cleavage, 20 min. 340,000 tested, 1.9% active; active = well fitted falling curve with a large enough effect; inconclusive = small, poorly fitted or top-dose-only effect; inactive = no such curve, though single readings can be large or run the other way; note: potency is the fitted concentration of half-maximal effect; the source files actives as falling curves though it sought activators and does not explain the sign; nearly all actives have a fitted effect of over 65% in size; many hits overshoot -100%
Target sequence (P80244 whole entry, looked up): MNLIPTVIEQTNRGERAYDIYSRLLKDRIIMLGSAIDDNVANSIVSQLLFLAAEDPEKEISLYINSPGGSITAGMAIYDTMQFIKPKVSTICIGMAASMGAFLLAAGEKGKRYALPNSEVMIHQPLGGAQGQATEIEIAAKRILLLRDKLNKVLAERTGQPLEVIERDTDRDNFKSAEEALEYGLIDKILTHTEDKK
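Buffer: 100 mM Tris/HCl pH8, 100 mM KCl, 0.05% low protease BSA, 2.5% glycerol, 0.01% Tween-20. ClpP 10 microg/mL final; 20 min RT; delta FRET normalized to ADEP and DMSO controls.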
TRPML1 blocker – qHTS for Inhibitors of the Human Mucolipin Transient Receptor Potential 1 (TRPML1) | activity change, negative = inhibition, % (test concentration not listed) | 390,000 tested, 0.02% active | Mucolipin-1 (Homo sapiens), Q9GZU1 | AID 624415, 2012 | TRPML1-inducible cells, Ca2+ dye fluorescence, FDSS; active compounds read low; inhibition of EC80 agonist-evoked calcium signal; in the data active means activity change below about -50%; inconclusive means about -30% to -50%; inactive means above about -30%;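 note: stimulus is agonist 54-4 at its EC80 concentration; % is set by controls: 0 for no effect and ±100 for the full control effect; compound concentration not given in the record; the text of the record puts the active cut at -80%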
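TRPML1-DL cells, Tet-induced overnight (~16 h, 37 °C) at 1,500 cells/well, were loaded with Ca8 no-wash dye plus quencher for 45-90 min at room temperature. Compounds were pinned during FDSS kinetic reading; agonist 54-4 at EC80 (4 uM final) then added.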
TRPV1 potentiator – HTS Assay for Compounds that Act as Potentiators of the Vanilloid Receptor 1 | TRPV1-expressing cells, Fluo-8 calcium influx, capsaicin EC20 potentiation; host cell line not named in the record; control for the full effect not named in the record | potentiation, % at 8.33 µM | 320,000 tested, 0.02% active | AID 540277, 2011; active means potentiation above 80%; inconclusive means 30% to 80%; inactive means below 30%; note: 0% is about no effect
Target sequence (Q8NER1 whole entry, looked up): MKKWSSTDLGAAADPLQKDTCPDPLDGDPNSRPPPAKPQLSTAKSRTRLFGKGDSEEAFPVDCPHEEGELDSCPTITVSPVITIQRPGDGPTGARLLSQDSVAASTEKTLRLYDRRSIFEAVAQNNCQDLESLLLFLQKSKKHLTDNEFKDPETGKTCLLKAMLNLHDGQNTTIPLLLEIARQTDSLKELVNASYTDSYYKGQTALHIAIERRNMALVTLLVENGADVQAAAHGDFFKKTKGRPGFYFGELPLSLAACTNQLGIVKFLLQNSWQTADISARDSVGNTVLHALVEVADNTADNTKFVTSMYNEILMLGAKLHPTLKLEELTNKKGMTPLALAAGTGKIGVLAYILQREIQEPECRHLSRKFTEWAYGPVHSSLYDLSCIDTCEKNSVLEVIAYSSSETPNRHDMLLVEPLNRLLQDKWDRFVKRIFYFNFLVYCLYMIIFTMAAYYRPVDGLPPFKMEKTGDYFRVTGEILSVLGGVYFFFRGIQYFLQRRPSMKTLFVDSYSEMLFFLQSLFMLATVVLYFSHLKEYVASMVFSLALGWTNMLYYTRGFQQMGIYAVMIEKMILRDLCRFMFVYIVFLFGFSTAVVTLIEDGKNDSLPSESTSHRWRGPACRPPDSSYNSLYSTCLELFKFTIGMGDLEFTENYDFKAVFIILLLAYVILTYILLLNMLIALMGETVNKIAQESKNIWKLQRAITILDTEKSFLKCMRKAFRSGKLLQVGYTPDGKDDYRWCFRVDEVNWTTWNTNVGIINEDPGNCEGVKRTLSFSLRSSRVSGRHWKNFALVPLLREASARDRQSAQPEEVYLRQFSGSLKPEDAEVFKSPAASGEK
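TRPV1-expressing cells were cultured overnight at 35.5C and loaded with Fluo-8 calcium dye for 40 to 90 min at room temperature. After a 10 s baseline, compound was added and calcium influx was read kinetically for 3 min (ex 480/em 520 nm).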
Numbers without * were called inactive; [ ] = another dose, or the depositor's remark.

`Cc1cc(C)c2sc(N(Cc3cccnc3)C(=O)CCS(=O)(=O)c3ccccc3)nc2c1` gave TRPML1 agonist 1.8, PINK1 expr mod -2.1%, ClpP mod 0.2% and TRPML1 blocker -1.
Screening Cc1ccc(C(=O)C2=C(O)C(=O)N(Cc3cccnc3)C2c2cccc([N+](=O)[O-])c2)o1 (stereo not drawn) returned TRPML1 agonist -0.2, Menin-MLL FL inh 0.3, PINK1 expr mod 3.7%, Sfp PPTase inh 0%, ClpP mod -1.3%, TRPML1 blocker 44 and TRPV1 potentiator 13.
For O=C(COc1ccc(Br)cc1CNC1CCCCC1)NCCc1ccccc1 the results were TRPML1 agonist 0.8, Menin-MLL FL inh -5.5, PINK1 expr mod inconclusive, Sfp PPTase inh 9%, TRPML1 blocker 2 and TRPV1 potentiator 9.
`Cc1ccc(OCC(=O)N2CCN(C(=O)c3ccc([N+](=O)[O-])cc3)CC2)cc1` gave TRPML1 agonist -0.9, Menin-MLL FL inh 1.0, PINK1 expr mod 0.3%, Sfp PPTase inh inconclusive, ClpP mod -3.5%, TRPML1 blocker 6 and TRPV1 potentiator -3.
CCC(C)N1C(=O)CN(C2CCCCCC2)C(=O)C1c1ccccc1F (stereo not drawn) was read as TRPML1 agonist 0.4, Menin-MLL FL inh -2.8, PINK1 expr mod 0.6%, Sfp PPTase inh 10%, TRPML1 blocker -2 and TRPV1 potentiator -18.
Screening Cc1nnc(SCC(=O)NC2CCCCC2)[nH]c1=O returned TRPML1 agonist 1.0, Menin-MLL FL inh 5.1, PINK1 expr mod 1.2%, Sfp PPTase inh -25%, TRPML1 blocker 24 and TRPV1 potentiator 0.
Screening Cc1ccc(-c2cnc3c(c2)C(=O)N([C@H](C)CO)C[C@H](C)[C@@H](CN(C)Cc2ccccc2F)O3)cc1 returned TRPML1 agonist -0.4, PINK1 expr mod -1.1%, ClpP mod 0.9% and TRPML1 blocker 3.
For O=C(CN(CC1CCCO1)C(=O)CCC(=O)Nc1nccs1)NCc1ccc2c(c1)OCO2 (stereo not drawn) the results were TRPML1 agonist -0.5, Menin-MLL FL inh 2.7, PINK1 expr mod -4.7%, Sfp PPTase inh 17%, ClpP mod -0.8%, TRPML1 blocker -1 and TRPV1 potentiator 1.
COc1ccc(C(=O)CN2CCN(S(=O)(=O)c3ccc(C(C)C)cc3)CC2)cc1 was read as TRPML1 agonist 0.7, PINK1 expr mod -0.5%, ClpP mod -1.8% and TRPML1 blocker -9.
For CC(C)c1ccc(NC2CCCN(C(=O)CCN3Cc4ccccc4C3=O)C2)cc1 (stereo not drawn) the results were TRPML1 agonist -0.5, PINK1 expr mod 1.5%, Sfp PPTase inh 3%, ClpP mod -0.3%, TRPML1 blocker -1 and TRPV1 potentiator 3.

Of the compounds above, 3 contain a carbonyl joined to an NH by a bond outside any ring:
For O=C(COc1ccc(Br)cc1CNC1CCCCC1)NCCc1ccccc1 the results were TRPML1 agonist 0.8, Menin-MLL FL inh -5.5, PINK1 expr mod inconclusive, Sfp PPTase inh 9%, TRPML1 blocker 2 and TRPV1 potentiator 9.
Screening Cc1nnc(SCC(=O)NC2CCCCC2)[nH]c1=O returned TRPML1 agonist 1.0, Menin-MLL FL inh 5.1, PINK1 expr mod 1.2%, Sfp PPTase inh -25%, TRPML1 blocker 24 and TRPV1 potentiator 0.
For O=C(CN(CC1CCCO1)C(=O)CCC(=O)Nc1nccs1)NCc1ccc2c(c1)OCO2 (stereo not drawn) the results were TRPML1 agonist -0.5, Menin-MLL FL inh 2.7, PINK1 expr mod -4.7%, Sfp PPTase inh 17%, ClpP mod -0.8%, TRPML1 blocker -1 and TRPV1 potentiator 1.

(cont.)
`C=CCc1ccccc1Oc1cc(OC)nc(N)n1` gave TRPML1 agonist 1.2, PINK1 expr mod 0.4%, ClpP mod -1.8%, TRPML1 blocker -1 and TRPV1 potentiator -6.
COc1cc(N)c(Cl)cc1C(=O)OCC(=O)c1ccc2c(c1)NC(=O)CO2 was read as TRPML1 agonist 0.4, PINK1 expr mod -0.5%, ClpP mod 14µM*, TRPML1 blocker 0 and TRPV1 potentiator -6.
`Cc1ccc(Nc2c(-c3ccccc3O)nc3ncccn23)cc1` gave Menin-MLL FL inh 0.4, PINK1 expr mod 2.6%, Sfp PPTase inh -3%, ClpP mod 3.1% and TRPV1 potentiator 18.
For COc1ccc(/C=N/N2C(=N)SCC2=O)cc1 the results were TRPML1 agonist 0.1, Menin-MLL FL inh 3.0, PINK1 expr mod 0.1%, Sfp PPTase inh 2%, ClpP mod -0.8%, TRPML1 blocker inconclusive and TRPV1 potentiator 6.
Screening Cn1ccnc1C(=O)c1cc(SCC(=O)NCc2ccccc2)nc2ccccc12 returned TRPML1 agonist -0.3, Menin-MLL FL inh -2.6, PINK1 expr mod 3.2%, Sfp PPTase inh 40µM*, TRPML1 blocker 16 and TRPV1 potentiator 2.
CCOc1ccc(CCNC(=O)C2CCN(c3ccc(N4CCOCC4)nn3)CC2)cc1OCC was read as TRPML1 agonist -0.6, Menin-MLL FL inh 0.0, PINK1 expr mod 0.5%, Sfp PPTase inh 2%, ClpP mod inconclusive, TRPML1 blocker -7 and TRPV1 potentiator -7.
`Cc1cc(NS(=O)(=O)c2ccc(NC(=O)c3cc4ccccc4o3)cc2)no1` gave Menin-MLL FL inh -0.5, Sfp PPTase inh 6% and TRPV1 potentiator -7.
`COc1ccc(CC(=O)Nc2nccs2)cc1OC` gave TRPML1 agonist 2.7, Menin-MLL FL inh 13, PINK1 expr mod 4.2%, Sfp PPTase inh 5%, ClpP mod -3.1%, TRPML1 blocker 7 and TRPV1 potentiator 1.
O=C(Nc1ccc(C(F)(F)F)cc1)C1CCCN(S(=O)(=O)c2cccc3cccnc23)C1 (stereo not drawn) was read as TRPML1 agonist 1.5, PINK1 expr mod 6.6%, ClpP mod 3.1% and TRPML1 blocker 32.
`C=CCSc1nnc(NC(=O)CSc2nc3ccccc3o2)s1` gave TRPML1 agonist 0.2, Menin-MLL FL inh 6.9, PINK1 expr mod 0.4%, Sfp PPTase inh 1%, ClpP mod -18%, TRPML1 blocker 21 and TRPV1 potentiator 16.
`O=C(Cn1ncc2c3ccccc3n(Cc3ccccc3F)c2c1=O)NC1CC1` gave TRPML1 agonist -0.3, Menin-MLL FL inh 0.3, PINK1 expr mod 4.3%, Sfp PPTase inh -11%, ClpP mod -12%, TRPML1 blocker 31 and TRPV1 potentiator 6.
COc1ccc(/C=C2/SC(=O)N(CCNC(=O)C3CCCN3C(=O)c3cccs3)C2=O)cc1 (stereo not drawn) was read as TRPML1 agonist 1.7, Menin-MLL FL inh 4.3, PINK1 expr mod 2.7%, Sfp PPTase inh -15%, TRPML1 blocker -2 and TRPV1 potentiator 0.
`CCN1CCN(S(=O)(=O)c2ccc(Cl)c(C(=O)N(CC)CC(=O)Nc3ccc(OC)cc3)c2)CC1` gave TRPML1 agonist -0.4, PINK1 expr mod 0.3%, Sfp PPTase inh 16%, ClpP mod 0.6%, TRPML1 blocker 6 and TRPV1 potentiator -1.
Screening Cn1c(SCc2cc(=O)[nH]c(C(C)(C)C)n2)nnc1C(F)(F)F returned TRPML1 agonist 0.1, Menin-MLL FL inh -1.4, PINK1 expr mod -0.4%, Sfp PPTase inh 5%, ClpP mod -0.1%, TRPML1 blocker -8 and TRPV1 potentiator -2.
`Cc1nnc(NC(=O)CSc2ccc(-c3ccc(Cl)cc3)nn2)s1` gave TRPML1 agonist -0.3, Menin-MLL FL inh 1.5, PINK1 expr mod 11%, Sfp PPTase inh -6%, ClpP mod 1.4%, TRPML1 blocker -11 and TRPV1 potentiator -22.
For COc1ccc(N2CCn3c2nc2c3c(=O)n(CCc3ccccc3)c(=O)n2C)c(OC)c1 the results were Menin-MLL FL inh 0.4, Sfp PPTase inh 12% and TRPV1 potentiator 11.
CCN(C(=O)Cc1c(C(=O)O)n(C)c2ccccc12)c1ccc(F)cc1 was read as TRPML1 agonist 0.3, Menin-MLL FL inh -2.9, PINK1 expr mod 1.8%, Sfp PPTase inh 22%, TRPML1 blocker -16 and TRPV1 potentiator 0.
For CCOc1cc(C)c(Cl)cc1S(=O)(=O)NCC1CCCO1 (stereo not drawn) the results were TRPML1 agonist 1.4, Menin-MLL FL inh -0.7, PINK1 expr mod -0.1%, Sfp PPTase inh 14%, ClpP mod 1.4%, TRPML1 blocker -15 and TRPV1 potentiator -13.
Screening COc1ccc(-c2cc(C(=O)Nc3sc4c(c3C(N)=O)CCC(C)C4)no2)cc1 (stereo not drawn) returned TRPML1 agonist 0.7, PINK1 expr mod 3.8%, ClpP mod -27% and TRPML1 blocker -5.
`O=C(Nc1cccnc1)c1cc(S(=O)(=O)N2CCCCC2)c(Cl)cc1Cl` gave TRPML1 agonist 0.2, Menin-MLL FL inh 1.0, PINK1 expr mod 4.9%, Sfp PPTase inh 21%, TRPML1 blocker 20 and TRPV1 potentiator 4.
Screening CCC(=O)N1CCc2cc(Br)cc(S(=O)(=O)CCC(=O)Nc3ccc(Cl)cc3)c21 returned TRPML1 agonist -0.8, PINK1 expr mod -0.5%, ClpP mod 1.7% and TRPML1 blocker 16.
COc1ccc(CN2C(=O)C(O)(CC(=O)c3ccc4c(c3)OCO4)c3ccccc32)cc1OC (stereo not drawn) was read as TRPML1 agonist 3.5, Menin-MLL FL inh 2.3, PINK1 expr mod 6.2%[38.3 µM], Sfp PPTase inh -9%, ClpP mod -3.2%, TRPML1 blocker 5 and TRPV1 potentiator 16.
Screening COc1cccc(C(=O)Nc2nc(-c3ccc(Br)cc3)ns2)c1 returned TRPML1 agonist 0.4, PINK1 expr mod inconclusive, ClpP mod -1.3% and TRPML1 blocker -2.
`CC(C)(C)c1ccc2c(c1)C(c1ccc3c(c1)OCO3)CC(=O)O2` (stereo not drawn) gave TRPML1 agonist -0.1, Menin-MLL FL inh 0.5[94.6 µM], PINK1 expr mod 0.3%, Sfp PPTase inh -7%, ClpP mod 2.9% and TRPML1 blocker 3.

Assay outcomes: PubChem, National Center for Advancing Translational Sciences (NCATS)
